# Bioassay records from PubChem BioAssay.
# Tgondii IFNg = inhibitors of Toxoplasma gondii growth with IFN-gamma; activity change, negative = inhibition, %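 (about 20 µM by stock and volumes)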; AID 1259416; 69,000 tested, 3.8% active; Toxoplasma gondii growth in IFN-gamma-treated host cells; stronger effect = lower value; reference of the scale not given here;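 active = below -70%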;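 also: host cells are HeLa cells infected with Toxoplasma gondii; parasite growth read as luciferase light; one replicate is shown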
# An asterisk follows results filed as active; i = inactive; & = joins results of further samples. An excerpt; rates above refer to the full screens.
SMILES,Tgondii IFNg
Cn1cncc1-c1cc(NCCO)nc2[nH]ccc12,11
O=C1CN(C(=O)c2noc3c2CCCC3)CC(OCc2cccnc2)CN1CC1CCOCC1 (stereo unspecified),-2
CCc1ccc(S(=O)(=O)NCCc2sc(-c3ccc(Cl)cc3)nc2C)cc1,-5
CCc1nnc(NC(=O)C2CC(=O)N(c3cccc(C)c3)C2)s1 (stereo unspecified),-34
O=C(c1ccc2c(c1)OCCO2)N1CCC[C@@H](Cn2nnc(-c3cccs3)n2)C1,112
Cc1ccncc1C(=O)N1CCOc2c(O)cc(-c3cccc(Cl)c3)cc2C1,-27
CCS(=O)(=O)N1CC2CN(C(=O)c3cnccn3)CC2C1 (stereo unspecified),-6
Cc1ccn(CCC(=O)NC2CC3(CCOCC3)Oc3ccccc32)n1 (stereo unspecified),-6
Clc1cccc(Cl)c1Cn1ccnc1,1
COc1ccc2nc(NS(=O)(=O)Cc3ccccc3)sc2c1,-34
Cc1c(C(=O)N2CCc3[nH]nc(-c4ccccc4)c3C2)[nH]c2c(F)cccc12,-66
c1cncc(CN2CCCC(n3cc(-c4ccc5c(c4)OCCO5)nn3)C2)c1 (stereo unspecified),-9
C=CCNS(=O)(=O)c1cc2c3c(c1)CCC(=O)N3CCC2,112
Cc1nc(-c2ccc(F)cc2)sc1CCNC(=O)CN1C(=O)c2ccccc2C1=O,-1
CCc1ccccc1NC(=O)Nc1ccc(-c2nc(-c3ccccc3)co2)cc1,42
Cc1nc(CN(C)C(=O)c2cccc(CC3CCNCC3)c2)no1,-7
O=C(Cn1ncc2c(N3CCCCC3)ncnc21)NCc1ccco1,21
Cc1ccc(Nc2nc(C(=O)NC(C)c3ccccc3)nc3ccccc23)cc1 (stereo unspecified),-15
Cn1c(CNC(=O)CC2CCCC2)nnc1SCc1ccccn1,3
CC(C)C(=O)N1CCC(c2nc(-c3ccncc3)ncc2S(C)(=O)=O)CC1,3
COc1ccc(SCC(O)CNCc2ccc(Cl)cc2)cc1 (stereo unspecified),-80*
CNc1ncccc1CN1C[C@H](N(C)C)C[C@H]1CO,1
COC[C@@H]1CN(C)C[C@@]12CCN(C(=O)/C=C/c1cccs1)C2,3
Cn1cc2c3c(cccc31)CN(C(=O)c1cccnc1Cl)CC2,35
COC(=O)c1cccc(NC(=O)N2CCC3(CC2)Nc2cc(F)ccc2-n2cccc23)c1,i
COC(=O)[C@@H]1C[C@H](NC(=O)Nc2cccc(Oc3ccccc3)c2)CN1C,1
O=C(NCC1(c2ccc(Cl)cc2)CC1)c1ccccc1C1CCNC1 (stereo unspecified),-3
Cc1[nH]nc(CCC(=O)N2C[C@@H]3[C@H](C2)[C@H]2CC[C@@H]3O2)c1C,10
CCC1c2cccn2CCN1S(=O)(=O)NCc1ccccc1 (stereo unspecified),-7
Cc1ccc2nc(C3CCCN3CC(=O)NCc3ccccn3)[nH]c2c1 (stereo unspecified),17
O=C(N1CCOCC1)C12CC3CC(CC(C3)C1)C2,-4
CCn1ncnc1C(C)NC(=O)Cc1cc2c(cc1Cl)OCCO2 (stereo unspecified),-18
CCCNC(=O)N1CCC2(CC1)CN(C(=O)CC1CC1)[C@H](CO)c1c2c2ccc(OC)cc2n1C,-1
NC(=O)C1(Cc2ccc(-c3cccs3)cc2)CN(C(=O)Cc2ccccc2)CCO1 (stereo unspecified),-38
Cc1cc(=O)[nH]c(C)c1NS(=O)(=O)NCc1ccccc1,1
CCS(=O)(=O)N1CCOCC1c1nccc(NCc2ccco2)n1 (stereo unspecified),9
COc1ccc(NC(=O)CSc2nnc3c(C)cc4ccccc4n23)cc1,0
CNc1ncc(CN(C)c2nccc(N3CCCC(O)C3)n2)cn1 (stereo unspecified),2
COc1ccccc1-n1c(-c2ccc(Br)cc2)cc2c1CC(C)(C)CC2=O,-92*
COc1ccc(OC)c(NC(=O)c2nnn(Cc3nc(-c4ccccc4)oc3C)c2C)c1,341
Cc1noc(C)c1NC(=O)N1CCN(c2ncccn2)CC1,2
O=C1NCCN(CCc2ccccc2)C1CC(=O)N1CCCCCCCC1 (stereo unspecified),8
CCCCc1nc(Cl)c(CN2CCOC(CN)C2)[nH]1 (stereo unspecified),9
Cn1cncc1CN1CCOC2(COCCN(S(C)(=O)=O)C2)C1 (stereo unspecified),27
Cc1ccc(CN2CCc3nc(-c4cnn(C)c4)nc(N(C)C)c3C2)s1,-28
Cc1ccc2[nH]c(=O)c(-c3nc(-c4ccc(F)c(Br)c4)no3)c(O)c2c1,61
CCOCC12CCCOC1CCN(Cc1ccc(C)s1)C2 (stereo unspecified),-88*
c1coc(CN2CCC(c3nc4ccc(N5CCOCC5)cn4n3)CC2)c1,-2
COC(=O)[C@@H]1C[C@@H](N(C)C)CN1Cc1cc2c(cc1OC)CCC2,-1
CC(C)Oc1ccccc1NC(=O)c1ccc(CN2CCCNC(=O)C2)cc1,6
O=S(=O)(c1ccc2ccccc2c1)N1CCC2(CC1)Nc1ccccc1-n1cccc12,40
C[C@@H]1CCCCO[C@H](CN(C)C(=O)Nc2ccc3c(c2)OCO3)[C@@H](C)CN([C@@H](C)CO)C(=O)c2cc(NS(=O)(=O)c3ccc(F)cc3)ccc2O1,63
O=C(N[C@@H]1CC[C@H](CCNS(=O)(=O)c2ccc(F)cc2)O[C@@H]1CO)C1CCC1,3
CC(CCNS(=O)(=O)c1ccc2[nH]c(=O)ccc2c1)N1CCCCCC1 (stereo unspecified),-44
Cc1[nH]c2c(c1C(=O)N1CCCN(CC3CC3)C(C(C)C)C1)C(=O)CCC2 (stereo unspecified),2
COc1ccc2c3c([nH]c2c1)[C@@H](CO)N(C(=O)Nc1c(C)noc1C)CC31CN(CC2CCOCC2)C1,27
CC(C(=O)O)N1C(=O)CSC1=S (stereo unspecified),-3
COc1ccc(C[C@H]2CN(C(=O)c3ccn(C)n3)CC[C@H]2OC)cc1,-62
COC[C@@H]1CC[C@@H]2[C@@H](CCN2C(=O)NCc2cccc(F)c2)O1,228
CO[C@H]1CN(C)C(=O)c2cccc(C#N)c2OCC[C@@H]2CC[C@@H](OC)[C@H](CN(C)C(=O)[C@@H]1C)O2,-10

# Next section.
SMILES,Tgondii IFNg
Cc1ccc(CNc2ccc(C(=O)N(C)Cc3noc(C(C)C)n3)cc2)cc1,-6
CCC(C(=O)N1CCC2(CC1)Nc1ccc(C)c(C)c1-n1cccc12)c1ccccc1 (stereo unspecified),10
Cc1[nH]c2c(F)cccc2c1CC(=O)NCc1noc(-c2ccco2)n1,5
Cc1ccc(C(=O)N2CCOCC3(CCC(CN4CCCC4)O3)C2)cn1 (stereo unspecified),28
Cc1cccc(-c2nc(C)c(CCNC(=O)C(=O)Nc3ccc(C)c(F)c3)s2)c1,64
CC(=O)NC1CCN(Cc2cccc(C(=O)Nc3cc(C)cc(C)n3)c2)C1 (stereo unspecified),-11
Clc1ccccc1CCNc1nc(-c2nnc(-c3ccccc3)o2)nc2ccccc12,-61
COc1cc(NC(=O)CN2C[C@@H](C)O[C@@H](C)C2)ccc1NC(=O)CC(C)C,4
CCOC(=O)c1nc(NCc2cccc(OC)c2)c2ccccc2n1,19
COc1cccc(NC(=O)N2CC(=O)N3[C@@H](CO)[C@@H](c4ccc(C#CCC5CCCC5)cc4)[C@@H]3C2)c1,-43
O=C(CC1CCCC1)Nc1ccc2c(c1)CCC(=O)N2,5
CC(=O)c1cccc(NC(=S)Nc2ccc(F)cc2)c1,27
CN(C)C(=O)C[C@@H]1CC[C@H]2[C@H](COc3ccc(NC(=O)C4CCCCC4)cc3C(=O)N2C)O1,13
CCC1=C(C)CN(C(=O)NCCc2ccc(S(=O)(=O)NC(=O)NC3CCC(C)CC3)cc2)C1=O (stereo unspecified),8&-28
CC(C)[C@H]1COC(c2cccc(C3=N[C@@H](C(C)C)CO3)n2)=N1,-1

# An excerpt of these results, tab-delimited:
Molecule	Tgondii IFNg
COc1ccc2c3c([nH]c2c1)[C@@H](CO)N(C(=O)Nc1c(C)noc1C)CC31CN(CC2CCOCC2)C1	27
CC(C(=O)O)N1C(=O)CSC1=S (stereo unspecified)	-3
COc1ccc(C[C@H]2CN(C(=O)c3ccn(C)n3)CC[C@H]2OC)cc1	-62
COC[C@@H]1CC[C@@H]2[C@@H](CCN2C(=O)NCc2cccc(F)c2)O1	228
CO[C@H]1CN(C)C(=O)c2cccc(C#N)c2OCC[C@@H]2CC[C@@H](OC)[C@H](CN(C)C(=O)[C@@H]1C)O2	-10
Cc1ccc(CNc2ccc(C(=O)N(C)Cc3noc(C(C)C)n3)cc2)cc1	-6
CCC(C(=O)N1CCC2(CC1)Nc1ccc(C)c(C)c1-n1cccc12)c1ccccc1 (stereo unspecified)	10
Cc1[nH]c2c(F)cccc2c1CC(=O)NCc1noc(-c2ccco2)n1	5
Cc1ccc(C(=O)N2CCOCC3(CCC(CN4CCCC4)O3)C2)cn1 (stereo unspecified)	28
Cc1cccc(-c2nc(C)c(CCNC(=O)C(=O)Nc3ccc(C)c(F)c3)s2)c1	64
CC(=O)NC1CCN(Cc2cccc(C(=O)Nc3cc(C)cc(C)n3)c2)C1 (stereo unspecified)	-11
Clc1ccccc1CCNc1nc(-c2nnc(-c3ccccc3)o2)nc2ccccc12	-61
COc1cc(NC(=O)CN2C[C@@H](C)O[C@@H](C)C2)ccc1NC(=O)CC(C)C	4
CCOC(=O)c1nc(NCc2cccc(OC)c2)c2ccccc2n1	19
COc1cccc(NC(=O)N2CC(=O)N3[C@@H](CO)[C@@H](c4ccc(C#CCC5CCCC5)cc4)[C@@H]3C2)c1	-43
O=C(CC1CCCC1)Nc1ccc2c(c1)CCC(=O)N2	5
CC(=O)c1cccc(NC(=S)Nc2ccc(F)cc2)c1	27
CN(C)C(=O)C[C@@H]1CC[C@H]2[C@H](COc3ccc(NC(=O)C4CCCCC4)cc3C(=O)N2C)O1	13

# (further entries)
SMILES,Tgondii IFNg
Cc1ccc(CC(=O)N2CC[C@H]3[C@@H]2CCN3c2ncccn2)cc1,7
CC(C)NC(=O)[C@@H]1C[C@@H](N)CN1Cc1cc(C(C)C)no1,-1
CCN(CC)[C@@H]1CCO[C@]2(CCN(C(=O)Cc3cccc(F)c3)C2)C1,-7
Cc1oc2ccccc2c2nn(C)c(=O)c1-2,163
Cc1oc(-c2cccs2)cc1C(=O)NCCNc1nccc(C(F)(F)F)n1,57
FC(F)(F)c1cc(-c2ccc(Br)cc2)n[nH]1,-22
CN(C)C(=O)c1cc(-c2cnc(N3CCOCC3)nc2)cn1CC1CC1,-1
Cc1cc(C)n(C2CCN(Cc3c(C)nc4ccccn34)CC2)n1,-24
C=CCNc1ccc(C(=O)N2CCN(C(=O)c3ccccc3)CC2)cc1,1
COc1nc2c(c(C)nn2-c2ccccc2)c(C)c1CCC(=O)NCCc1c[nH]c2ccccc12,13
Cc1ccsc1C(=O)N1CCc2ncc(CN(C)C)n2CC1,3
O=C(C[C@@H]1CC[C@@H]2[C@H](COC[C@@H](O)CN2Cc2cccc(Cl)c2)O1)NCc1cccc(F)c1,0
COc1ccc(-c2nnc(-c3nc(Nc4ccc(Br)cc4)c4ccccc4n3)o2)cc1,9
CN(Cc1ccccc1)S(=O)(=O)c1ccc(N2CCOCC2)nc1,-30
O=C(c1cnccn1)N1CCCC2(C1)Nc1cccnc1NC2=NCc1ccccc1 (stereo unspecified),39
CC(C)NC(=O)[C@H]1CO[C@@H]2CN(Cc3ccc4c(c3)OCO4)C[C@@H]12,-4
Cc1cccc(-c2nc(Cn3nnc(C(=O)NCc4ccc(F)c(Cl)c4)c3C)c(C)o2)c1,-93*
CCCNC(=O)N1CC(=O)N2[C@H](CO)[C@H](c3ccc(C#Cc4cccc(OC)c4)cc3)[C@@H]2C1,-14
Cc1c(Cl)cccc1-c1ccc(CNCCCSc2ncccn2)o1,4
CCn1c(C2CCN(C(=O)Cc3ccccn3)CC2)nn(C)c1=O,1
Cc1cc(CC(C)NC(=O)c2cc(COc3cccc(F)c3)[nH]n2)n[nH]1 (stereo unspecified),1
Cc1ccc(OCc2nn(CN3CCC(C(N)=O)CC3)c(=S)n2C)cc1C,48
O=C(Cn1ncc2c(N3CCCC3)ncnc21)NCc1ccccc1,10
CCN1CC(C(=O)Nc2ccc(Cn3cncn3)cc2)CC1=O (stereo unspecified),-6
CC(C)(C)c1cc(CN2CCN(S(=O)(=O)c3ccccc3)CC2)[nH]n1,-6
CN1c2ccccc2C(=O)/C(=N\Nc2ccccc2C(F)(F)F)S1(=O)=O,37
Cc1noc(C)c1C(=O)N(Cc1ccsc1)CC1CCCO1 (stereo unspecified),-1
Cc1ccc(CNc2nc(-c3cccnc3)nn2C(=O)C(C)C)cc1,7
Oc1c(Cl)c2nc3ccccc3nc2c2ccccc12,-105*
CCC1c2cccn2CCN1C(=O)c1cccc(NCc2cccnc2)c1C (stereo unspecified),2
CCOC(=O)c1cnc2oc3ccc(O)cc3c2c1-c1ccccc1,14
COc1ccc(CC(=O)N2CCC3(CC2)OC(C(N)=O)Cn2ccnc23)cc1 (stereo unspecified),-1
CN(Cc1cc(Br)cc(Br)c1N)C1CCCCC1,-21&-1
O=C(Nc1ccccc1C(F)(F)F)N1CCC2(CC1)Nc1cc(F)ccc1-n1cccc12,55
Cc1ccc(-c2cc(C(=O)NCC3(c4cccc(F)c4)CCOCC3)no2)cc1,-25
CCCc1cc(C(=O)N2CCCC(c3[nH]ncc3-c3ccccc3)C2)ccn1 (stereo unspecified),-3
CC(C)NC(=O)N1CC[C@@H]2N(S(C)(=O)=O)CC[C@@]2(C(=O)N2CCOCC2)CC1,29
CC1CCN(S(=O)(=O)c2ccc3c(c2)CCC(=O)N3CC(=O)N2CCCCC2C)CC1 (stereo unspecified),-10
COc1ccc2c(c1)-c1nc(-n3ncc(C(=O)NCCCN4CCOCC4)c3C)ncc1CC2,-19
COC(=O)[C@@H]1C[C@@H](N(C)C)CN1C(=O)c1ncccc1OC,18
Cc1cc(C(=O)N2CCc3ncnc(C)c3CC2)no1,24
CC(=O)N1CCc2ncc(CNC(=O)CC3CC3)n2CC1,-21
CN(CCn1cccn1)c1nc(-c2cccnc2)nc2c1cnn2C,-40
CC(C)C#Cc1ccc([C@H]2[C@@H](CO)N3C(=O)CN(S(=O)(=O)c4ccccc4)C[C@H]23)cc1,-29
